Calb FLC = C. albicans growth inhibition with fluconazole, primary screen, CaCi-2 strain, Alamar Blue fluorescence; C. albicans CaCi-2 (fluconazole-resistant clinical isolate) + fluconazole, 48 h; growth inhibition, % (concentration not given with the values); 300,000 compounds, 0.57% hits; AID 1979, 2009;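 active = most replicates above 75%; inconclusive = exactly half above 75%; inactive = most below 75%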;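 also: all wells also contain fluconazole at 8 µg/ml as a sub-toxic cotreatment; 0% = median of DMSO wells and 100% = median of geldanamycin control wells; wells of about 8 µL received 7.5 nL stock; the first replicate is given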
LANA-H2A inh = blockers of LANA interaction with H2A/H2B – biochemical, FP readout, HTS, primary screen; cell-free LANA-H2A/H2B peptide, fluorescence polarization; AID 2629, 2010; 320,000 compounds, 0.6% hits; Protein LANA1 (Human herpesvirus 8 type P (isolate GK18)), Q9QR71; inhibition, % (concentration not given with the values); in the data active = inhibition mostly above about 10%, no sharp cut-off; inactive = mostly below about 6.7%;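 also: stock transfer was 7.5 nL into about 10 µL; 0% = median of vehicle wells and 100% = median of positive control wells; one replicate is shown; the record names a cut of 25% in any replicate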
B2AR ag = beta2AR agonists driving receptor internalization, primary screen, cell-based, FAP fluorogen, flow cytometry. Am2.2-beta2AR cells; reference of the scale not given here. response, % (no concentration beside the values). 340,000 compounds, 0.43% hits. AID 504454, 2011;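 active = response above a set limit, near 3 SD of response in nonfluorescent compounds, cut at about 42% in these data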;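 also: stock transfer was 100 nL into about 11 µL; a reference agonist was the positive control; negative values mostly stem from fluorescent compounds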
Target sequence (P07550 whole entry, looked up): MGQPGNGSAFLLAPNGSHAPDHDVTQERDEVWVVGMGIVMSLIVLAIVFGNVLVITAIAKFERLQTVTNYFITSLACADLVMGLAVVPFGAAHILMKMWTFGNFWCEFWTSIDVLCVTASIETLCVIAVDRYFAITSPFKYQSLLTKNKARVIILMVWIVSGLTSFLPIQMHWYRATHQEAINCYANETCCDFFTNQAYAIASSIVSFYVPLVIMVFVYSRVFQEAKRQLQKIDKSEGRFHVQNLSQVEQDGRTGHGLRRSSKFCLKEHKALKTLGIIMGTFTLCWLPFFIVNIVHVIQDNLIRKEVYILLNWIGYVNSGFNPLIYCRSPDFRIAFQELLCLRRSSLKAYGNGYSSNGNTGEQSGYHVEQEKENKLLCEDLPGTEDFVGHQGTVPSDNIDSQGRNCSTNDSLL
ALR inh = inhibitors of human ALR sulfhydryl oxidase, primary screen, biochemical, H2O2 detection, HRP-luminol luminescence, single point. FAD-linked sulfhydryl oxidase ALR (Homo sapiens), P55789. purified ALR, DTT oxidation. inhibition, % (test concentration not listed). 290,000 compounds, 3.8% hits. AID 485317, 2010;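 active = mean and each replicate at 75% or more; inconclusive = only one of the two met; inactive = neither met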;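 also: stock transfer was 7.5 nL into about 7.5 µL; 0% = neutral wells and 100% = wells with inactivated enzyme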
Target sequence (P55789 whole entry, looked up): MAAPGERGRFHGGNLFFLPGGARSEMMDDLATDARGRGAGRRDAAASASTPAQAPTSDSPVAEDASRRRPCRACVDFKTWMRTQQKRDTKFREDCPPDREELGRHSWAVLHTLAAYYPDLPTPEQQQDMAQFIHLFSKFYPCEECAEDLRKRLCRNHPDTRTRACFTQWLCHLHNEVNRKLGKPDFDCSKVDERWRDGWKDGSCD
Vif A3G = inhibitors of Vif binding to APOBEC3G peptide, primary screen, biochemical, TR-FRET, GST-Vif 1-94, biotin-A3G peptide, dose response retest (AID 1117319) | Virion infectivity factor (Human immunodeficiency virus type 1 group M subtype B (isolate … | TR-FRET GST-Vif / biotin-A3G peptide binding; higher % means a stronger effect; test concentration not given here; strong numbers were not always called active | inhibition, %; hits with a dose series show IC50 in µM | 260,000 compounds, 0.57% hits;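 active = above the screen mean plus three standard deviations and confirmed in dose response; inconclusive = results disagree or hit not tested in dose response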;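 also: Vif residues 1-94 fused to GST binding biotinylated APOBEC3G peptide 110-148; 0% = full assay without inhibitor and 100% = GST in place of GST-Vif; retest series ran down from 100 µM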
RanGTP-Impb inh = inhibitors of RanGTP-importin-beta interaction, primary screen, biochemical, FRET, CFP-Ran, YFP-importin-beta, homogeneous; Ran GTPase (GTP-bound) - importin-beta complex; cell-free CFP-Ran/YFP-importin-beta FRET ratio; inhibition, % (concentration not given with the values); 300,000 compounds, 1.1% hits;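 active = most replicates above 15%; inconclusive = exactly half above 15%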;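 also: 0% = DMSO wells and 100% = Ran loaded with GDP instead of GTP; wells of about 40 µL received 100 nL stock; the first replicate is given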
HNF4A DNA FP = change in binding of human HNF4A to DNA, primary screen, biochemical, fluorescence polarization, FITC-DNA. Hepatocyte nuclear factor 4-alpha (Homo sapiens), P41235. 1 h. activity change, % at 10 µM. 360,000 compounds, 0.3% hits. AID 1224865, 2016; in the data active = activity change above about 30%, passing the limit was not always enough;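 also: controls were the assay level and a saturating level of protein; the project sought stronger binding though the title names inhibitors; some compounds called inactive have numbers as strong as hits; positive values seem to mean higher polarization but the record does not say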
Target sequence (P41235 whole entry, looked up): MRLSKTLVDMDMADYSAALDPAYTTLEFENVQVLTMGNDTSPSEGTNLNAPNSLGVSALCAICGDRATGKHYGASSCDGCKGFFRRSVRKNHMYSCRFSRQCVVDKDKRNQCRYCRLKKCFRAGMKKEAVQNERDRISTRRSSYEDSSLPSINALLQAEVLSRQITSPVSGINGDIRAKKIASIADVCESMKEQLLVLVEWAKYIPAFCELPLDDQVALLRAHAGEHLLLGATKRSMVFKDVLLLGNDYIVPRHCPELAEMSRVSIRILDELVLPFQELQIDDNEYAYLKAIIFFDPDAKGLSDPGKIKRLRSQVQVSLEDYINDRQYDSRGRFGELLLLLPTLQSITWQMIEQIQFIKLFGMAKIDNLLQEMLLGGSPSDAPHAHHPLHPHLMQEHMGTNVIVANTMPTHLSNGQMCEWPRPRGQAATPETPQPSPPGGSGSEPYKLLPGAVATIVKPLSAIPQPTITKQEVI
* hit, by the source's call; ? = inconclusive; . = no result given. Hits appear at their usual frequency; overall some 6.3% were active at least once.

Order of results – Calb FLC, LANA-H2A inh, B2AR ag, ALR inh, Vif A3G, RanGTP-Impb inh, HNF4A DNA FP
COc1ccc(N2CCN(C(=O)c3cc4c(s3)CCCCC4)CC2)cc1
→ ., 2.2, 1, ., ., ., 3.7
O=C(Nc1ccccc1Br)c1c(F)cccc1Cl
→ -1, -5.2, -3, -3, -2%, 1.6, -0.6
CCOc1ccc(OCCC(=O)N2CCN(S(=O)(=O)c3ccc(F)cc3)CC2)cc1
→ -4, 1.0, 6, -11, -10%, 1.1, 3.8
C=CCOc1c(CNc2ccc(C(=O)O)cc2)cccc1OC
→ 9, 1.3, 4, ., 28%, 1.8, -1.0
COc1ccccc1C/C(N)=N/OC(=O)c1ccc(C)c([N+](=O)[O-])c1
→ -2, 5.4, -4, 4, -5%, 0.4, -1.5
COc1ccc(NC(=O)c2nc(C)n(-c3ccc([N+](=O)[O-])cc3)n2)cc1
→ 4, -2.3, 2, -7, ., -3.0, 5.0
COc1ccc(/C=N/NC(=O)CNc2ccc(Br)cc2)c(C(=O)O)c1OC
→ 15, -5.8, 9, 12, -9%, -14, 1.5
CCC(=O)OCCn1c(=O)c2cc3c(=O)n(CCOC(=O)CC)c(=O)c3cc2c1=O
→ ., -3.5, 3, -1, ?, ., -3.1
CC1CCCCN1Cc1c(O)ccc2c(=O)c(-c3ccccc3)coc12 (centres undefined)
→ 4, -4.6, -14, ., -3%, 0.6, -0.3
COc1ccc(CN2[C@@H](CC(=O)O)c3cc(C(F)(F)F)ccc3S2(=O)=O)cc1
→ 2, -4.0, 2, ., ., 2.9, 1.0
O=C(c1ccc(CNS(=O)(=O)c2cccc(Cl)c2)cc1)N1CCCCC1
→ 11, -5.9, 10, -7, -2%, ?, 0.8
COc1cc(SC)ccc1C(=O)Nc1ccc2c(c1)CCN2S(C)(=O)=O
→ -5, -3.1, 5, 5, -1%, 5.4, 0.1
CCC1CCCCN1C(=O)c1cc(-c2ccc(Cl)c(Cl)c2)on1 (centres undefined)
→ 9, 2.7, -1, -41, ?, ?, -0.9
CCC(C(=O)N1CCN(c2ccccn2)CC1)n1nc(C)n2c(cc3occc32)c1=O (centres undefined)
→ 1, -14, -20, 0, 4%, 6.9, 0.1
O=C(C1CCN(S(=O)(=O)c2ccc(Cl)cc2)CC1)N1CCN(c2ccccn2)CC1
→ ., 1.1, -10, -8, ., ., 5.9
Cc1cc(O)c(C(C[N+](=O)[O-])c2ccc(Cl)cc2)c(=O)o1 (centres undefined)
→ 0, 0.8, 9, 4, -1%, -3.2, 4.6
CCOC(=O)C1=C(C)N(CCCCCC(=O)O)C(=O)NC1c1ccc([N+](=O)[O-])cc1 (centres undefined)
→ 7, -1.6, -6, -3, ., -1.1, 1.4
Cc1cccc(NC(=O)[C@H](C)NC(=O)[C@@H]2Cc3ccccc3CN2C(=O)OC(C)(C)C)c1
→ 0, -5.8, -6, -4, 5%, -0.7, 11
CCCCn1c(N)c(N(CC)C(=O)c2cccs2)c(=O)[nH]c1=O
→ ., -0.7, 5, -3, 2%, ., -1.8
COCCCNC(=O)C1CCN(c2ccc(N3CCOCC3)nn2)CC1
→ -1, -1.5, -4, ., ?, -0.3, 2.0

A section of the results above:
Order of results – Calb FLC, LANA-H2A inh, B2AR ag, ALR inh, Vif A3G, RanGTP-Impb inh, HNF4A DNA FP
CCCCn1c(N)c(N(CC)C(=O)c2cccs2)c(=O)[nH]c1=O
→ ., -0.7, 5, -3, 2%, ., -1.8
COCCCNC(=O)C1CCN(c2ccc(N3CCOCC3)nn2)CC1
→ -1, -1.5, -4, ., ?, -0.3, 2.0

Other entries follow.
Order of results – Calb FLC, LANA-H2A inh, B2AR ag, ALR inh, Vif A3G, RanGTP-Impb inh, HNF4A DNA FP
CCOC(=O)CC(NS(=O)(=O)c1ccc(NC(C)=O)cc1)c1ccc(OCC)cc1 (centres undefined)
→ 5, 0.0, -1, -3, 19%, 7.0, 3.5
CCN(CC(=O)Nc1ccc(NC(C)=O)cc1)C(=O)CCCOc1cccc(C)c1
→ 0, 6.1, -6, -1, -3%, -3.0, 2.6
CC(=O)c1ccc(N2CCN(Cc3nc(Cc4ccccc4)no3)CC2)cc1
→ -9, -1.7, 1, -10, ., -2.1, -0.5
c1ccc2c(c1)nc(NCC1CCCO1)c1nnnn12 (centres undefined)
→ -7, 2.3, -2, 51, 3%, 23*, -8.6
O=S(=O)(Nc1ccc(Cl)cc1)c1ccc(N2CCOCC2)c(NC(=S)NCCN2CCOCC2)c1
→ 33, -1.7, 2, 5, -6%, -2.1, -0.5
Nc1ccc([N+](=O)[O-])cc1C(=O)NNC(=O)c1ccco1
→ -2, -10, 3, 3, ., -3.4, -1.5
CCOc1ccc(CC(=NCCc2ccccc2)C2=C(O)CC(C)(C)CC2=O)cc1OCC
→ 40, 1.8, -8, -3, ., -4.0, -1.1
O=c1[nH]c(C2CCN(S(=O)(=O)c3cccc([N+](=O)[O-])c3)CC2)nc2c1nnn2Cc1ccccc1
→ 30, 0.2, -1, 3, ., 0.8, -3.0
S=c1nc(C2CCCCC2)n(-c2ccccc2)[nH]1
→ -22, 4.4, -5, 3, ., -1.5, 2.4
COc1ccc([C@@H]2[C@@H]3C(=O)N(C(C)(C)C)C(=O)[C@@H]3[C@]3(Cc4ccc(Cl)cc4)C(=O)N(c4cccc(F)c4)C(=O)N23)cc1
→ ., -4.8, 0, -9, ., ., 4.6
COc1ccc(NC(=O)COc2ccc3c(c2)CCC3)cc1
→ 7, -3.4, 2, -1, -3%, 4.1, 0.5
O=C(Nc1ccc(Cc2ccncc2)cc1)c1ccc(Br)o1
→ 7, -3.6, -4, 2, -1%, 0.1, 2.6
CC(C)CCC(C(=O)O)C(C)CC(=O)NC1CCCCC1 (centres undefined)
→ -9, 0.2, 1, -1, 1%, -8.9, 0.9
Cc1nc2cc(NC(=O)N3CCC(c4ccccc4)C3)ccc2n1C (centres undefined)
→ -7, -3.0, 6, -10, 12%, 7.7, 4.8
COc1ccc(-c2noc(N3CCC(C(=O)NC(C)c4ccccc4)CC3)n2)cc1 (centres undefined)
→ -9, 1.6, -5, -12, ., 4.2, -3.0
CCN(CC(=O)NCc1cccs1)C(=O)CN(C)S(=O)(=O)c1ccc(C)cc1
→ -15, -0.8, 6, -1, 2%, -3.1, -4.0
CC(C)n1c(C(O)c2ccccc2)nc2ccccc21 (centres undefined)
→ -2, -3.1, -4, -12, 0%, 9.7, -0.6
O=P(O)(Cc1ccccc1)Cc1ccccc1
→ 11, 0.4, -5, 0, -1%, 2.6, 0.2
COc1cccc(CNC(=O)CCC2CCCN(C(=O)Cc3ccccc3F)C2)c1 (centres undefined)
→ -8, 0.5, -4, -1, ., 3.7, -3.3
Cc1ccc(Oc2ccc(-c3nc(N)nc(N)n3)cc2)cc1C
→ 18, 0.1, -4, 1, -3%, -1.6, 0.2

3 entries from above, as tab-separated lines:
Structure	Calb FLC	LANA-H2A inh	B2AR ag	ALR inh	Vif A3G	RanGTP-Impb inh	HNF4A DNA FP
Nc1ccc([N+](=O)[O-])cc1C(=O)NNC(=O)c1ccco1	-2	-10	3	3	.	-3.4	-1.5
CCOc1ccc(CC(=NCCc2ccccc2)C2=C(O)CC(C)(C)CC2=O)cc1OCC	40	1.8	-8	-3	.	-4.0	-1.1
O=c1[nH]c(C2CCN(S(=O)(=O)c3cccc([N+](=O)[O-])c3)CC2)nc2c1nnn2Cc1ccccc1	30	0.2	-1	3	.	0.8	-3.0

The listing continues:
Order of results – Calb FLC, LANA-H2A inh, B2AR ag, ALR inh, Vif A3G, RanGTP-Impb inh, HNF4A DNA FP
CCCc1nn2c(=O)cc(CSCC(=O)Nc3ccc(OC)cc3)nc2s1
→ 14, -2.1, 2, 22, ., 9.0, 1.5
Cn1c2ccccc2c2c(C(=O)N3CCN(C(=O)c4ccco4)CC3)cn(C3CCCCC3)c(=O)c21
→ -1, 1.3, -3, 3, 3%, -2.7, 0.9
CCOC(=O)C1CCN(C(=O)c2ccc(OC3CCN(C(=O)COC)CC3)cc2)CC1
→ -4, ., -13, ., ., -0.2, -0.8
CC(NC(=O)c1cccc(S(=O)(=O)N2CCN(C)CC2)c1)C1CC2CCC1C2 (centres undefined)
→ -28, -2.7, -2, ., -3%, 4.3, -3.2
CC1Nc2ccccc2C(=O)N1NS(C)(=O)=O (centres undefined)
→ -8, 1.7, 2, 2, 9%, -0.8, -1.9
O=C1c2cccnc2C(=O)N1c1ccccc1-c1ccccc1
→ 1, -4.2, -1, -5, 26%, -1.7, -2.1
Cc1ccc(S(=O)(=O)Oc2ccc(/C=C3\C(=N)N4N=C(S(C)(=O)=O)SC4=NC3=O)cc2)cc1
→ 0, 0.7, 0, 92*, 5%, 1.7, -6.2
COc1ccc(CCN2CC(O)=C(c3nc(C)cs3)C2=N)cc1OC
→ -5, -2.6, 8, 50, -3%, 2.5, 9.4
O=C(NCc1cccc(C(F)(F)F)c1)C1CC(c2ccccc2[N+](=O)[O-])=NO1 (centres undefined)
→ 8, -0.7, -11, ., -9%, -0.3, 2.9
O=C(C1=C[C@H](c2ccc3c(c2)OCO3)C[C@H](OCCCCO)O1)N1CCN(Cc2ccc3c(c2)OCO3)CC1
→ 0, 2.8, -5, -10, ., 5.2, 1.9
CCN(CC)c1ccc(/C=N/NS(=O)(=O)c2ccc(C)c([N+](=O)[O-])c2)cc1
→ 11, 6.1, -1, ?, 27%, ?, -2.7
COC(=O)c1[nH]c2cc(OC)ccc2c1NC(=O)CCN1CCCCC1
→ -1, -0.9, -4, -7, 0%, -1.4, -0.3
O=c1nccc(N/N=C/c2ccccc2)[nH]1
→ 0, -2.7, -3, -3, 4%, -1.2, 1.9
COc1cc(-c2cc(-c3ccccc3)nc(SCC(=O)Nc3nccs3)c2C#N)cc(OC)c1OC
→ -28, -0.9, 7, -1, 4%, 0.1, 0.2
O=C(CCCCCn1c(=O)[nH]c2ccsc2c1=O)N1CCCCC1
→ 16, -0.4, -18, 5, 26%, -0.3, -0.3
COc1cc2ncnc(NCc3ccccc3Cl)c2cc1OC
→ 14, 6.3, 9, ., -6%, 12, 1.1
C=C(C)COc1ccc2c(C)c(C)c(=O)oc2c1OCC(=C)C
→ 5, 2.5, -7, -2, 67%, 4.6, -4.4
Cc1nnc2sc(-c3cccc4ccccc34)nn12
→ 3, -1.3, 3, -14, -8%, 5.9, -1.5
Cc1cc(=O)n2[nH]c(C)cc2n1
→ 42, -1.8, -1, 0, ., -1.6, 2.4
O=C(CN(c1ccc(F)cc1)S(=O)(=O)c1ccc2c(c1)OCCO2)NCc1cccnc1
→ 0, 0.0, -16, -3, 5%, -3.6, 0.9

Four entries already listed, sorted by number of heavy atoms, rising.
Order of results – Calb FLC, LANA-H2A inh, B2AR ag, ALR inh, Vif A3G, RanGTP-Impb inh, HNF4A DNA FP
CC1Nc2ccccc2C(=O)N1NS(C)(=O)=O (centres undefined)
→ -8, 1.7, 2, 2, 9%, -0.8, -1.9
O=C(Nc1ccccc1Br)c1c(F)cccc1Cl
→ -1, -5.2, -3, -3, -2%, 1.6, -0.6
COc1ccc(N2CCN(C(=O)c3cc4c(s3)CCCCC4)CC2)cc1
→ ., 2.2, 1, ., ., ., 3.7
Cn1c2ccccc2c2c(C(=O)N3CCN(C(=O)c4ccco4)CC3)cn(C3CCCCC3)c(=O)c21
→ -1, 1.3, -3, 3, 3%, -2.7, 0.9
